# Measles inh: inhibitors of measles virus growth in infected cells; actives 0.1% (n = 33,000); AID 745; infected Vero cells, GFP fluorescence, 64 h; stronger effect = lower value; z-score (no concentration beside the values);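 active = z-score under -3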;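 also: score is relative to mean and SD of the compound wells of a plate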
# * hit, by the source's call. Only part of the results is shown (hit frequency here may not be typical).
SMILES,Measles inh
Cc1cc(C(F)(F)F)nn1CC(=O)Nc1ccc([N+](=O)[O-])cc1Cl,-0.17
Cc1ccc(S(=O)(=O)N2CCC(C(=O)N3CCCC(C(F)(F)F)C3)CC2)cc1 (centres undefined),0.02
CCCCCOC(=O)C1=C(C)NC(=S)NC1c1ccccc1 (centres undefined),-1.4
C=CCNC(=O)c1c[nH]c2ccc(S(=O)(=O)N(C)c3ccccc3OCC)cc2c1=O,0.06
CC1=C(C(=O)Nc2ccccc2)C(c2cccc(O)c2)n2nc(SCc3ccccc3)nc2N1 (centres undefined),-0.73
COc1ccc(OC)c(C2C(C(=O)OC3CCCC3)=C(C)NC3=C2C(=O)CC(C)(C)C3)c1 (centres undefined),1.5
O=C(OCCCN1C(=O)c2ccccc2C1=O)C(Cc1ccccc1)N1C(=O)c2ccccc2C1=O (centres undefined),-0.33
O=C1CSC2(CCCCC2)N1c1ccc(Cl)cc1,-1.3
NC(=O)c1oc2ccccc2c1NC(=O)c1ccccc1,-1
CSc1nnc2c(n1)OC(C1CC=C(C)CC1C)Nc1ccccc1-2 (centres undefined),0.72
Cn1c(=O)c2cc(C(=O)N3CCN(C(=O)c4ccco4)CC3)sc2c2ccccc21,-1
O=S(=O)(Nc1nc2ccccc2nc1Nc1ccccc1F)c1ccccc1,-0.57
O=C1CCc2nc3sc4c(c3c(=O)n2N1)CCCC4,-0.78
CC(=O)c1ccc2c(c1)C1C=CCC1C(c1cccc([N+](=O)[O-])c1)N2 (centres undefined),1.8
Cc1ccsc1CC1C(=O)N(C)C(=O)N(C)C1=O,0.28
Cc1ccccc1CN1C(=O)C(O)(CC(=O)c2ccc(C(C)C)cc2)c2cc(Cl)ccc21 (centres undefined),-0.24
CCOC(=O)C1=CN(c2ccc(C)c(C)c2)C=C(C(=O)OCC)C1c1ccc(F)cc1,-0.06
CC(C)OCCCNC(=O)c1ccc2c(c1)N(Cc1cccc(Cl)c1)C(=O)c1ccccc1S2,0.92
CC1=CN2C(=O)CC(=O)N=C2C=C1,0.7
CCC(CO)Nc1nc2c(c(=O)n(C)c(=O)n2C)n1C (centres undefined),-0.21
COc1cccc(Nc2nc(-c3ccc(Cl)cc3)cs2)c1,2.8
CC(C)(C)c1ccc2[nH]c3c(cc(NCCO)c4c(=O)c5ccccc5c(=O)c43)oc2c1,-0.11
COc1ccc(C)cc1NC(=O)C1CCN(S(=O)(=O)c2ccccc2)CC1,0.92
NC(=O)c1nn2c(C(F)(F)F)cc(-c3ccccc3)nc2c1Br,-0.34
CCOc1ccc2cc(C(=O)Nc3ccccc3)c(=O)oc2c1,0.09
CCOC(=O)c1ccc(N2C(=O)CC(NCC34CC5CC(CC(C5)C3)C4)C2=O)cc1 (centres undefined),-0.47
CCOC(=O)C1=CN(c2ccc(C)c(C)c2)C=C(C(=O)OCC)C1c1ccccc1OC,1.3
CC1(C)CC(=O)C2=C(C1)NC1=C(C(=O)CC(C)(C)C1)C2c1cccc(OCc2ccc(F)cc2)c1,0
CC(C)(C)C1CCc2onc(C(=O)Nc3ccc4c(c3)OCO4)c2C1 (centres undefined),-0.82
CCCCOC(=O)c1cc(-c2ccccc2)nc2ccc(Br)cc12,0.67

# Some of the entries so far, tab-delimited.
canonical_smiles	Measles inh
CCOC(=O)C1=CN(c2ccc(C)c(C)c2)C=C(C(=O)OCC)C1c1ccccc1OC	1.3
CC1(C)CC(=O)C2=C(C1)NC1=C(C(=O)CC(C)(C)C1)C2c1cccc(OCc2ccc(F)cc2)c1	0
CC(C)(C)C1CCc2onc(C(=O)Nc3ccc4c(c3)OCO4)c2C1 (centres undefined)	-0.82

# Additional results follow:
SMILES,Measles inh
CCN(CC)C(=O)c1ccc2c(=O)n(-c3cc(OC)ccc3OC)c(=S)[nH]c2c1,-5.5*
COc1ccc(CC(=O)Nc2ccc(-c3noc(-c4cc(Cl)ccc4OC)n3)cc2)cc1,-2
CCCCCOC(=O)C1=C(C)Nc2ncnn2C1c1ccccc1OC(F)F (centres undefined),-0.46
CCCCN(C)S(=O)(=O)c1ccc(C(=O)Nc2nnc(CC)o2)cc1,-1
O=C1C2C3CC(C(Br)C3Br)C2C(=O)N1c1ccccc1O (centres undefined),-0.83
Cc1cc[n+](Cc2cnc(C)nc2N)cc1,1.2
c1ccc(SCc2cn3cccnc3n2)cc1,-0.29
CCOc1ccc(N2COc3ccc4ccccc4c3C2)cc1,-0.26
O=C(c1ccccc1)N1N=C(c2ccccc2)CC1c1ccc2nccnc2c1 (centres undefined),-0.36
Cc1cccc(N2CCN(C(=O)CCCCCn3c(=S)[nH]c4ccc(N5CCOCC5)cc4c3=O)CC2)c1C,0.39
[O-][N+](=Cc1cccc(Br)c1)c1ccccc1,-0.45
Cc1ccc(CNC(=O)C2CC(=O)N(CCC(C)C)C2)cc1 (centres undefined),-0.25
O=C1C(c2ccc(Cl)cc2)N(C2CCCCC2)C(=O)CN1C1CCCCC1 (centres undefined),0.64
O=C(C(=O)c1ccc(-c2ccccc2)cc1)c1ccccc1,-0.84
C=CCNc1nc(OC(C(F)(F)F)C(F)(F)F)nc(N2CCCCC2)n1,1.3
CC1CCc2c(sc(NC(=O)CCCOc3ccccc3)c2C(N)=O)C1 (centres undefined),-0.47
O=C1C=C(NCCN2CCOCC2)CC(c2ccco2)C1 (centres undefined),0.2
O=c1[nH]nc(SCc2ccc(Cl)cc2)c(=O)[nH]1,-1.4
CCCS(=O)(=O)c1c(S(=O)(=O)CCC)c2cnccn2c1C(=O)c1ccc(Cl)cc1,0.12
Cc1ccc(C(=O)c2coc3ccc(OCC(=O)O)cc23)cc1,-0.62
COc1cccc(C2=CC(c3ccccc3C)n3ncnc3N2)c1 (centres undefined),-0.16
Cc1ccc(S(=O)(=O)N2CCSC2c2ccc3c4c(cccc24)CC3)cc1[N+](=O)[O-] (centres undefined),-0.23
CC1=C(C(=O)OCCc2ccccc2)C(c2ccccn2)C2=C(CCCC2=O)N1 (centres undefined),-0.09
Cc1ccc(NS(=O)(=O)c2cccc3nonc23)cc1F,-0.77
Cc1nnc(N2C(=O)C(O)=C(C(=O)c3ccco3)C2c2ccccc2F)s1 (centres undefined),1
CC1CCCCN1S(=O)(=O)c1ccc2[nH]c(=O)cc(C(=O)NCc3ccccc3)c2c1 (centres undefined),0.96
COc1ccc(C)cc1N(C)S(=O)(=O)c1cccc2nsnc12,-0.53
O=[N+]([O-])c1cccc(S(=O)(=O)n2c(SCc3ccccc3F)nc3ccccc32)c1,2.2
CCOc1ccc(CC(=O)Nc2ccc([N+](=O)[O-])cc2)cc1OCC,-0.06
O=C1NC(=O)C(CC(=O)N(Cc2ccco2)C2(C(=O)NC3CCCC3)CCCCC2)N1 (centres undefined),-1.2
O=C(NCCC1=CCCCC1)c1ccc(N2CCCCCC2)c([N+](=O)[O-])c1,-1.2
Cc1ccc(C2CC(C(F)(F)F)n3nc(C(=O)Nc4ccc5c(c4)OCO5)cc3N2)cc1 (centres undefined),-0.47
CCOc1ccc(NC(=O)Cn2c(=O)[nH]c3ccsc3c2=O)cc1,-0.99
COc1ccccc1OCCNc1cc(N2CCOCC2)ccc1[N+](=O)[O-],-0.48
O=C(Nc1ncnc2sc3c(c12)CCCC3)c1ccccc1,0.41
CCCCN(Cc1ccccc1)C(=O)C1CCN(S(=O)(=O)c2c(C)noc2C)CC1,-0.75
COc1cc(C2NC(=O)NC(C)=C2C(=O)OCC2CCCO2)cc(Br)c1O (centres undefined),-0.55
N#Cc1c(NC(=O)c2ccccc2Cl)sc2c1CCCC2,-0.73
COc1ccc(C(=O)N2CCc3cc(OC)c(OC)cc3C2)cc1OC,1.2
COc1cccc(CNC(=O)C2CCN(S(C)(=O)=O)CC2)c1,-0.12
COc1ccc(Cl)cc1NC(=O)C1CCN(C(=O)c2ccccc2C)CC1,-0.4
CCOc1ccc2nc(SC3CC(=O)N(c4ccccc4)C3=O)nc(C)c2c1 (centres undefined),-0.19
O=C(c1ccc(Cl)cc1)N1N=C(C2CCCCC2)CC1(O)C(F)(F)F (centres undefined),0.39
CC1=C(C(=O)OCc2ccccc2)C(c2ccc([N+](=O)[O-])cc2)CC(=O)N1 (centres undefined),-1.3
Cn1c(CNc2nc3ccccc3n2C)nc2ccccc21,0.16
O=C(O)CSc1cccc2cccnc12,-0.21
Cc1ccc(NC(=O)CSc2nc3ccccc3c(=O)n2CCC(=O)N2CCCCC2)cc1C,1.5
COc1ccc2oc(C)c(C(=O)O)c2c1,-0.48
COc1ccc(C(=O)Nc2ccccc2C(N)=O)cc1[N+](=O)[O-],0.32
CC1CCN(C(=O)CSc2nc3c(c(=O)n2-c2ccc(F)cc2)SCC3)CC1,-0.27
O=C1c2ccccc2C(=O)N1c1ncc(Cc2ccc(Br)cc2)s1,0.22
CN1C(=O)c2ccccc2C(C(=O)NC2CCCC2)C1c1cn(C)c2ccccc12 (centres undefined),0.38
COc1cccc(NC(=O)c2ccc(Sc3ccccc3Cl)c([N+](=O)[O-])c2)c1,-0.4
Cc1c(-c2ccccc2)n(C)c2ccccc12,-0.05
CS(=O)(=O)N1CCCC(C(=O)NCC2CCCO2)C1 (centres undefined),0.71
O=[N+]([O-])c1ccc2[nH]c(=S)[nH]c2c1,0.58
COc1ccccc1-c1nc2c3c(-c4ccccc4)c(-c4ccccc4)oc3ncn2n1,0.1
Clc1ncnc2c1[nH]c1ccccc12,0.23
COc1ccc(C2NC(=O)NC(C)=C2C(=O)Nc2ccc(C)c(Cl)c2)cc1OC (centres undefined),-0.15
Cc1ccc(N)c(C(=O)C(=O)O)c1Br,1.6

# Among those listed so far, these contain fluorine:
SMILES,Measles inh
Cc1cc(C(F)(F)F)nn1CC(=O)Nc1ccc([N+](=O)[O-])cc1Cl,-0.17
Cc1ccc(S(=O)(=O)N2CCC(C(=O)N3CCCC(C(F)(F)F)C3)CC2)cc1 (centres undefined),0.02
O=S(=O)(Nc1nc2ccccc2nc1Nc1ccccc1F)c1ccccc1,-0.57
CCOC(=O)C1=CN(c2ccc(C)c(C)c2)C=C(C(=O)OCC)C1c1ccc(F)cc1,-0.06
NC(=O)c1nn2c(C(F)(F)F)cc(-c3ccccc3)nc2c1Br,-0.34
CC1(C)CC(=O)C2=C(C1)NC1=C(C(=O)CC(C)(C)C1)C2c1cccc(OCc2ccc(F)cc2)c1,0
CCCCCOC(=O)C1=C(C)Nc2ncnn2C1c1ccccc1OC(F)F (centres undefined),-0.46
C=CCNc1nc(OC(C(F)(F)F)C(F)(F)F)nc(N2CCCCC2)n1,1.3
Cc1ccc(NS(=O)(=O)c2cccc3nonc23)cc1F,-0.77
Cc1nnc(N2C(=O)C(O)=C(C(=O)c3ccco3)C2c2ccccc2F)s1 (centres undefined),1
O=[N+]([O-])c1cccc(S(=O)(=O)n2c(SCc3ccccc3F)nc3ccccc32)c1,2.2
Cc1ccc(C2CC(C(F)(F)F)n3nc(C(=O)Nc4ccc5c(c4)OCO5)cc3N2)cc1 (centres undefined),-0.47
O=C(c1ccc(Cl)cc1)N1N=C(C2CCCCC2)CC1(O)C(F)(F)F (centres undefined),0.39
CC1CCN(C(=O)CSc2nc3c(c(=O)n2-c2ccc(F)cc2)SCC3)CC1,-0.27

# Continuation:
SMILES,Measles inh
COC(=O)C(O)(c1ccc(O)cc1)C(F)(F)F (centres undefined),0.26
CCOC(=O)c1cn(CC)c2cc(N3CCCCC3)c(F)cc2c1=O,1.5
COc1ccc2c(c1)OC(c1ccc(Br)cc1)C1=C2Nc2ncnn2C1c1ccc(F)cc1 (centres undefined),-0.21
CCOC(=O)CNC(=O)c1cc(C(=O)OC)cc([N+](=O)[O-])c1,-0.83
COc1ccccc1OC(=O)c1cccc(N2C(=O)C3C4C=CC(C4)C3C2=O)c1 (centres undefined),-0.22
CCC(C)NC(=O)c1cnn2c(C(F)(F)F)cc(-c3cccs3)nc12 (centres undefined),-0.5
CCCCc1nc2sc3c(N4CCOCC4)ncnc3c2c2c1COC(C)(C)C2,0.74
Cc1ccc(COc2ccc3oc(C)c(C(=O)OC(C)C)c3c2)cc1,0.65
Cc1cc(C)n(-c2ccc3cccc(N)c3n2)n1,-0.51
Cc1ccccc1N1C(=O)c2ccc(C(=O)Nc3cccc([N+](=O)[O-])c3)cc2C1=O,0.94
CC(=O)Nc1cccc(N2C(=O)C3C4c5ccccc5C(c5ccccc54)C3C2=O)c1 (centres undefined),0.6
O=C(CNS(=O)(=O)c1ccc(Br)s1)NC1CCCCC1,-0.8
CCOc1ccc(NC(=O)c2c(N)sc(-c3ccccc3)c2C)cc1,-0.04
CC(C)c1ccccc1NC(=O)c1cccc(Cl)c1,0.31
COc1cc(CNc2ccccc2)cc(OC)c1OC,1.5
CSc1nnc2c(n1)OC(C)(C)Nc1ccc(Br)cc1-2,-0.76
COc1cc(NC(=O)c2cccc(Br)c2)nc(OC)n1,-0.49
CN1CCN(C(=O)c2cnn3c(C(F)(F)F)cc(-c4ccc(Br)cc4)nc23)CC1,-0.34
COc1ccc(OC)c(NC(=O)c2cc3ccccc3cc2OC)c1,1.4
COCCCNC(=O)COc1ccc2c(c1)C(=O)CC(C)(C)O2,0.67
Cc1cccc(NC(=O)CSc2nnnn2C)c1C,0.07
O=C(NCCN1CCC(Cc2ccccc2)CC1)c1ccc2c(c1)ncn2C1CCCCC1,-0.47
CC1=C(C(=O)OCCc2ccccc2)C(c2ccc([N+](=O)[O-])cc2)NC(=O)N1C (centres undefined),0.39
CCC1CCCCN1C(=O)c1n[nH]c(=O)c2ccccc12 (centres undefined),-0.37
CCOC(=O)C1CCN(C(C(=O)Nc2c(C)cccc2C)c2ccccc2)CC1 (centres undefined),1.4
COc1ccc(C2CC(c3cccs3)=Nc3ccccc3S2)c(OC)c1 (centres undefined),-1.2
CCN(CC)S(=O)(=O)c1nc2nc(C)c(C)c(C)n2n1,0.61
COc1ccc2nc(-c3ccc([N+](=O)[O-])cc3)nc(-c3ccccc3)c2c1,-0.01
CC(C)CCN1COc2ccc3c4c(oc3c2C1)C(=O)c1ccccc1C4=O,-0.91
CC1CC(C)(C)NC(=S)N1CCCC(=O)Nc1ccc(F)cc1 (centres undefined),-0.72
Cc1ccc(Cc2c(C)nc3c(C(=O)NCCCN(C)C)cnn3c2C)cc1,-1.6
COc1ccc(NCC(O)Cn2c(C)c(C)c3ccccc32)cc1 (centres undefined),-0.07
Cc1cccc(NC(=O)c2cc(S(=O)(=O)Nc3ccc(C(=O)O)cc3)ccc2Cl)c1,-0.08
COc1ccc(-n2nc3c(c2NC(C)=O)CS(=O)(=O)C3)cc1,0.2
